# VACV mCherry inh – qHTS for Stage-Specific Inhibitors of Vaccinia Orthopoxvirus: mCherry Reporter Primary qHTS | Vaccinia virus mCherry reporter infection, fluorescence; about a quarter of the inactives have no number | Potency, µM (titrated, usually from 36.5 µM), without a hit: at the highest dose activity change, negative = inhibition, hits mostly inhibitors | hit rate 0.63% among 310,000 | AID 720579, 2013; active = well fitted inhibition curve with a large enough effect; inconclusive = small, poorly fitted or top-dose-only effect; inactive = no such curve, though single readings can be large or run the other way; tested in A549 cells; further: nearly all actives have a fitted effect of over 35% in size; inactives centre near -10
# Vaccinia Venus – qHTS for Stage-Specific Inhibitors of Vaccinia Orthopoxvirus: Venus Reporter Primary qHTS; Vaccinia virus Venus reporter expression, fluorescence; Potency, µM (series often up to 36.5 µM), for the others: at the highest dose activity change, negative = inhibition, actives largely listed as inhibitors; hit rate 0.46% among 330,000; AID 720580, 2013; active means well fitted inhibition curve with a large enough effect; inconclusive means small, poorly fitted or top-dose-only effect; inactive means no such curve, though single readings can be large or run the other way; tested in A549 cells; further: nearly all actives have a fitted effect of over 30% in size; inactives centre near -10
# Numbers without * were called inactive; i = inactive; ? = inconclusive; . = no result given. On the % scale 0 is the no-effect control and ±100 the full control effect; potency means the concentration at half of the fitted maximal effect.
compound	Vaccinia Venus	VACV mCherry inh
O=S1(=O)CCN2C(=N1)SC1=C2CCN(Cc2ccccc2)C1	1%	-3%
COc1cc(CCNC(=O)c2cnn3ccccc23)cc(OC)c1OC	-27%	?
O=C(COc1ccc(S(=O)(=O)N2CCOCC2)cc1Cl)N1CCOCC1	-12%	-18%
O=[N+]([O-])c1nccn1CCCCCCN1CCOCC1	3%	17%
CC(=O)Nc1ccc(C(=O)N/N=C/c2cc(Br)cc(Br)c2O)cc1	-8%	-18%
COc1ccc(NC(=O)C2CCCN(S(=O)(=O)c3cccc4cccnc34)C2)cc1OC (stereo unspecified)	-7%	-11%
N#CCCN(C1CCCCC1)S(=O)(=O)CCOc1ccccc1	-15%	.
C(=C\c1ccccn1)/c1ccccn1	-1%	-4%
C=C(C)C(=O)Oc1ccc(N=Nc2ccc(C)cc2)ccc1=O	-23%	-27%
CCOCCCNC(=O)CCCC1=NS(=O)(=O)c2ccccc2N1	-8%	-12%
CCOc1ccc(C(=O)Nc2ccccc2OCc2cc(=O)n3ccccc3n2)cc1	-21%	-12%
COc1ccc(N(C(=O)COc2ccccc2)C2C=CS(=O)(=O)C2)c(OC)c1 (stereo unspecified)	-11%	-16%
Cn1c(SCc2cc([N+](=O)[O-])cc3c2OCOC3)nnc1-c1ccccn1	-5%	i
CC(=O)c1ccc(Oc2cnccn2)cc1	-8%	-6%
CCOc1cc(CNCCc2ccc(S(N)(=O)=O)cc2)ccc1OCc1ccc(Cl)cc1	11µM*	.
O=C(CN1CCN(c2ccc(F)cc2)CC1)NC(=O)NCc1ccco1	-9%	-15%
CC1CCCCN1CCCNC(=O)c1ccc(Br)cc1 (stereo unspecified)	-22%	-22%
Cc1ccccc1Oc1ncnc(N)c1[N+](=O)[O-]	-16%	i
CC(C)c1nc2cc3ccccc3cc2[nH]1	-23%	?
COc1ccc(C(=O)N2CCn3c2nc2ccccc23)cc1	-1%	3%

compound	Vaccinia Venus	VACV mCherry inh
CCCCOc1ccc(C(=O)Nc2ccc(C)cc2[N+](=O)[O-])cc1	-4%	0%
Cc1nc(NC(=O)CCc2ccccc2)sc1C	-15%	i
COc1ccc(C(=O)c2c(-c3ccsc3)oc3ccc(-c4ccc(OC)cc4)cc23)cc1	5%	i
CCCCn1c(N)c(N(CCOC)C(=O)c2ccc(S(=O)(=O)N3CCCCC3)cc2)c(=O)[nH]c1=O	1%	-13%
O=C(Nc1c2c(nn1-c1ccccc1)CS(=O)C2)c1ccc(Br)o1 (stereo unspecified)	-4%	-6%
Cc1ccccc1OCC(=O)Nc1cccc(C(=O)OCc2cc(=O)n3c(C)csc3n2)c1	-20%	-14%
O=C(CN(CCc1ccccc1)S(=O)(=O)c1ccc(Br)cc1)N/N=C/c1ccc2c(c1)OCO2	-9%	-7%
CCOC(=O)C1(C)CCCN(C(=O)c2cccc(C(F)(F)F)c2)C1 (stereo unspecified)	-2%	13%
CN1[C@@H]2CCC[C@H]1CC(=O)C2	-6%	i
CCOc1ccccc1NC(=O)Cn1ccn(Cc2ccc(C)cc2)c(=O)c1=O	-4%	-7%
CCc1cccc(C)c1NC(=S)N(CCOC)C(C)c1ccco1 (stereo unspecified)	-8%	-23%
O=[N+]([O-])c1ccc(NC(=S)N2CCN(c3ccccc3)CC2)cc1	-8%	-7%
CCCCNC(=O)C1(C)CCCCN1C(=O)c1ccc2c(c1)C(C)(C)CCC2(C)C (stereo unspecified)	-17%	12%
Cc1cnc(-n2ncc(C(=O)NCc3cccnc3)c2C)nc1-c1ccc(F)cc1	-29%	?
CCOC(CCNC(=O)c1cn(CC(C)C)c(=O)c2c1c1ccccc1n2C)OCC	-11%	?
C=CCN(C(=O)CNC(=O)c1ccco1)C(C(=O)NC1CCCCC1)c1ccc(OC)cc1OC (stereo unspecified)	-1%	-13%
O=[N+]([O-])c1cccc2c3c([nH]c12)CCCC3	-21%	-22%
C=CCn1c(SCC(=O)Nc2ccc3c(c2)CCC3)nc2ccccc2c1=O	-2%	-10%
CCCCn1c(N)c(N(CC(C)C)C(=O)c2cnc(C)cn2)c(=O)[nH]c1=O	-15%	-8%
COc1cc(/C=C2\SC(=S)N(CCC(=O)N3CCN(C)CC3)C2=O)cc(OC)c1OC	19%	-20%

compound	Vaccinia Venus	VACV mCherry inh
CSCCC(c1nc2ccccc2[nH]1)n1c(=O)c(-c2cccnc2)nc2ccccc21 (stereo unspecified)	-15%	-13%
Cc1ccc(NC(=O)CSc2ccc3nnc(CCNS(=O)(=O)c4ccccc4)n3n2)cc1Cl	-7%	-8%
COc1ccc(-c2ccccc2)cc1NC(=O)c1cccs1	-15%	?
C[C@H](NC(=O)C1(c2ccccc2)CCN(C(=O)[C@H]2CSCN2C(=O)OC(C)(C)C)CC1)C(=O)O	4%	2%
O=C(NC(=O)c1ccncc1)NC(c1ccccc1)c1ccccc1	-8%	0%
Nc1ccc(N(c2ccccc2)c2ccc(N)cc2)cc1	28µM*	?
CC(=O)c1ccc(NC(=O)CSc2nc(C)cc(C)c2C(N)=O)cc1	-14%	i
CCN(CC)c1ccc(S(=O)(=O)N2CCOCC2)cc1NC(=O)CSc1nncs1	-7%	-12%
O=C(NCC1CC1)c1onc(CSc2ccc(F)cc2)c1C(=O)NCC1CC1	-11%	i
COc1ccc(-c2cc(C(=O)Nc3ccc(Br)cc3)no2)cc1	-11%	-14%
CC(C)Oc1cccc(C(=O)N/N=C/c2ccoc2)c1	3%	-15%
CCOC(=O)c1c(NC(C)=O)sc2c1CCCNC2=O	-13%	.
Cc1ccc(-n2c(C)cc(C(=O)Cn3nc(C(=O)O)c4ccccc4c3=O)c2C)cc1	-26%	-25%
COc1ccc(S(=O)(=O)N(C)CC(=O)N2CCN(c3ccccc3)CC2)cc1	-8%	-12%
O=C(Nc1nc(-c2ccc([N+](=O)[O-])cc2)cs1)C1=COCCO1	-8%	-1%
CCC1(C)CC(C(N)=S)CCO1 (stereo unspecified)	-13%	i
COc1ccc(-c2ccccc2NC(=O)C2CCCN(Cc3ccc(C)o3)C2)cc1 (stereo unspecified)	-11%	i
COCC1COS(=O)(=O)NC1(C)C (stereo unspecified)	-2%	i
CCOC(=O)Cc1csc(NC(=O)CCCCCN2C(=O)c3cccc4cccc(c34)C2=O)n1	5%	-12%
CCc1nnc(SC(CC)C(=O)Nc2ccc(OC)c(Cl)c2)c2cc3occc3n12 (stereo unspecified)	-13%	2%

compound	Vaccinia Venus	VACV mCherry inh
CCc1ccc(-c2cc(C)no2)cc1S(=O)(=O)NCc1ccc(OC)cc1	-24%	-26%
O=C(Cc1cc(=O)[nH][nH]1)N/N=C/c1ccccc1[N+](=O)[O-]	-14%	-18%
O=C(O)C(F)(F)C(NCc1ccccc1)c1ccccc1 (stereo unspecified)	-5%	0%
O=CNc1ccccc1	-15%	0%
CCc1c(C)nc2cc(-c3cccs3)[nH]n2c1=O	-14%	-8%
COCCN(C(=O)CSc1nc2ccccc2c(=O)n1CCOC)c1c(N)n(Cc2ccccc2)c(=O)[nH]c1=O	-1%	4%
CCCCC(=O)Nc1ccc(C2C(=O)c3ccccc3C2=O)cc1	0%	-14%
O=C(Cc1c(F)cccc1Cl)Nc1ccc(S(=O)(=O)N2CCCC2)cc1	-11%	-1%
Cc1cc(C)n(C(=O)CNC(=O)COc2ccccc2)n1	-4%	-13%
COc1cc(NC(=O)c2c(Cl)cnn2C)c(OC)cc1Cl	3%	i
O=C(NC1CCCCC1)C1CCN(S(=O)(=O)c2cccc3nonc23)CC1	-7%	-14%
COC(=O)c1ccc(C2N=C(c3cccs3)CC(c3ccccc3O)N2)cc1 (stereo unspecified)	3%	-2%
O=C(c1ccccc1)c1c(-c2ccccc2)[nH]n(-c2ccccc2)c(=O)c1=O	10%	i
O=C(/C=C/c1ccc2c(c1)OCO2)c1ccc(O)cc1O	-8%	?
O=C(CCS(=O)(=O)c1cccc2nonc12)Nc1cccc2c1CCCC2	-17%	-22%
COc1ccccc1C(=O)C1CCCN(C(=O)c2snnc2C)C1 (stereo unspecified)	-8%	0%
COc1ccc(NC(=O)c2sccc2SCC#N)cc1	-4%	-8%
CC#CC[N+](C)(C)CCCCCCCC	-2%	-13%
Cc1cccc(Nc2cc(C)nc3nc(-c4ccccc4)nn23)c1	-10%	-9%
CCN1C(=O)N[C@H](c2ccc(Br)cc2)C(C(C)=O)=C1C	-11%	0%

compound	Vaccinia Venus	VACV mCherry inh
CC(=O)NCc1ccc(C(=O)CCl)s1	-1%	-20%
CCCCC[C@H]1CN(CCCC)C(=O)[C@@H]1CC(=O)NCc1ccccc1	-21%	i
COc1ccc(-c2nc3ccccc3o2)cc1NC(=O)C(C)Oc1ccc(Cl)cc1Cl (stereo unspecified)	-11%	-13%
S=C(NCCCN1CCOCC1)Nc1ccc(N2CCOCC2)cc1	0%	-16%
COCCCNC(=O)CCc1nnc2ccc(N3CCC(C)CC3)nn12	-11%	i
O=C(C1CCN(S(=O)(=O)N2CCOCC2)CC1)N1CCc2ccccc21	-5%	.
CCOC(=O)C1CCN(C(=O)N(CC)CC)CC1	-14%	i
COC(=O)C1CC(=O)c2ccsc2C1 (stereo unspecified)	0%	-14%
O=C(NC1CC(=O)N(c2ccc(Cl)cc2)C1)C1CCCCC1 (stereo unspecified)	-11%	-5%
COc1ccccc1CNC(=O)CCn1c(=O)c2ccccc2n(CC(=O)Nc2ccc(C)cc2C)c1=O	5%	-10%
COCCNC(=O)CSc1nc2ccccc2c(=O)n1CCCC(=O)NCc1ccccc1	-5%	-15%
CSc1nnc(C2CCCN2)n1C (stereo unspecified)	-6%	-14%
O=C(N/N=C/c1ccccn1)c1cc(-c2ccc3ccccc3c2)n[nH]1	?	?
O=C1C(Cl)=C(NC2CCCCC2)C(=O)N1c1ccc(Cl)cc1	-9%	i
CCN1CCN(Cc2nc3c(c(=O)n(C)c(=O)n3C)n2CC(=O)c2ccccc2)CC1	2%	-21%
NC(=O)C1Cc2ccccc2CN1C(=O)c1cccc(Oc2ccccc2)c1 (stereo unspecified)	-12%	-10%
CC1CCc2noc(NC(=O)c3ccccc3[N+](=O)[O-])c2C1 (stereo unspecified)	-11%	-22%
CC(C)(O[C@@H]1O[C@H](CO)[C@@H](O)[C@H](O)[C@H]1O)[C@H]1Cc2cc3ccc(=O)oc3cc2O1	-4%	-4%
COc1cc(S(=O)(=O)N(Cc2ccccc2)Cc2ccccn2)ccc1-n1cnnn1	-5%	i
Cc1ccc(S(=O)(=O)n2cnc3cc([N+](=O)[O-])ccc32)c(C)c1C	-6%	-22%

# Part of the list above, set out differently:
CCOC(=O)C1CCN(C(=O)N(CC)CC)CC1
  Vaccinia Venus: -14%
  VACV mCherry inh: i

COC(=O)C1CC(=O)c2ccsc2C1 (stereo unspecified)
  Vaccinia Venus: 0%
  VACV mCherry inh: -14%

O=C(NC1CC(=O)N(c2ccc(Cl)cc2)C1)C1CCCCC1 (stereo unspecified)
  Vaccinia Venus: -11%
  VACV mCherry inh: -5%

# (cont.)
compound	Vaccinia Venus	VACV mCherry inh
Cc1c(C(=O)NCc2cccs2)sc(=O)n1Cc1ccc(S(=O)(=O)N(C)C)cc1	-4%	12%
N#Cc1ccc(S(=O)(=O)N2CCC(Oc3cccc(C(F)(F)F)c3)CC2)cc1	-16%	-9%
COc1ccc(NC(=O)CSc2nc(=O)n(CCN(C)C)c3c2CCCC3)cc1OC	-10%	-22%
C=CCN1[C@@H](C(C)C)COCCS1(=O)=O	-8%	-18%
CC1C(=O)C(C)C(c2ccco2)NC1c1ccco1 (stereo unspecified)	4%	-9%
CC(/C=N/n1c(-c2ccco2)n[nH]c1=S)=C\c1ccccc1	-11%	-11%
Oc1ccc(-c2csc(-c3cccnc3)n2)cc1O	-14%	?
CCOC(=O)c1sc(N(Cc2ccccc2)C(=O)COC(=O)c2cnccn2)nc1C	-4%	-3%
CC(C)(C)C1CCc2[nH]nc(C(=O)O)c2C1 (stereo unspecified)	-19%	.
CCC(C)NC(=S)N(CCc1ccccc1)Cc1cc2cc(OC)c(OC)cc2[nH]c1=O (stereo unspecified)	-28%	-27%
O=C(O)C(Cc1c[nH]c2ccccc12)NS(=O)(=O)c1ccc(F)cc1 (stereo unspecified)	-13%	i
CCC(=NCCN1CCOCC1)c1c(O)n(-c2ccccc2C)c(=O)[nH]c1=O	-8%	-15%
Cc1ccc2c(CC(=O)N(Cc3ccc(Cl)cc3)Cc3ccco3)coc2c1	-13%	-21%
CSc1ncnc2c1ncn2CCCNCc1cccs1	-7%	i
Cc1c(C(=O)OC2CCCC2C)[nH]c2c1C(=O)CCC2 (stereo unspecified)	-16%	-20%
O=C(NNC(=O)c1cccc(C(F)(F)F)c1)c1ccc(-n2cnnn2)cc1	-5%	-19%
CCC(C)NC(=O)CCC(=O)N1Cc2ccccc2Oc2ncccc21 (stereo unspecified)	3%	-13%
COc1ccc2c(-c3cc4ccc(OCc5ccc(F)cc5)cc4oc3=O)cc(=O)oc2c1	-8%	-11%
O=C(CCl)N1N=C(c2ccco2)CC1c1ccco1 (stereo unspecified)	-27%	?
COCCNc1nc(C)cc(-c2cc(-c3ccc(Cl)cc3)on2)n1	-18%	i

# Compound activity deposited in PubChem by National Center for Advancing Translational Sciences (NCATS).
